# Source: PubChem BioAssay (several laboratories)
# BJeLR viability – BJeLR cell viability loss; inhibition, % (test concentration not listed); hit rate 0.17% among 300,000; BJeLR (HRASV12) viability, CellTiter-Glo ATP luminescence, 48 h; reference of the scale not given here;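 active = replicate mean above 50%; inconclusive = above 50% but judged a plate artefact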;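 also: 50 nL library stock added to about 25 µL; numbers are from one replicate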
# ugtP null kill – growth inhibition of S. aureus ugtP deletion strain; S. aureus RN4220 ugtP deletion, OD600 growth, 16 h; some inactives read as strong as hits; AID 1259309; hit rate 0.54% among 330,000; growth inhibition, % (test concentration not listed);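 active = z-score under -3 and OD600 up to 0.15 on both plates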;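 also: plate controls were untreated wells for no effect and antibiotic for full effect; wells of about 80 µL received 100 nL stock; the first replicate is given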
# RN4220 kill – kills Staphylococcus aureus RN4220; inhibition, % (no concentration beside the values); hit rate 0.33% among 330,000; S. aureus RN4220 growth, OD600, 16 h;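 active = z-score of -3 or lower and OD600 up to 0.18 on both plates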;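 also: plate controls were untreated cells for no effect and reference antibiotic for full effect; stock transfer was 100 nL into about 80 µL; one replicate is shown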
# PrP UTR inh – inhibition of PrP 5' UTR reporter expression. cell-based PrP 5' UTR mRNA reporter, plate reader. inhibition, % (concentration not given with the values). hit rate 0.35% among 340,000. AID 488862;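 active = every replicate at 50% or more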;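 also: 0 = median of the neutral control wells; tested in H4 reporter cells; numbers are from one replicate; inactives centre near -14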
# Autofluor counter – compound fluorescence in toxin protease inhibitor counterscreen; compound autofluorescence counterscreen, microsphere flow cytometry; active compounds read high; fluorescence intensity (concentration not given with the values); hit rate 3.1% among 360,000;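 active = at least 3 SD above the mean of all compounds, about 16000 in these data; inconclusive = too few beads counted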;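 also: 100 nL of 1 mM stock went into each well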
# Mtb hypoxia rep – inhibitors of hypoxia-regulated fluorescent reporter in Mycobacterium tuberculosis; M. tuberculosis hypoxia-regulated fluorescent reporter, fluorescence; fluorescence inhibition, % (concentration not given with the values); hit rate 0.1% among 300,000; AID 1159583;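 active = 35 to 45% if threefold the growth effect, above 45% if 1.5-fold the growth effect; inactive = the rest, general growth blockers included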;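 also: wells of about 50 µL received 100 nL stock; 0% = vehicle wells and 100% = reference inhibitor wells; whole bacteria with a GFP reporter of the hypoxia response; strong numbers were not always called active; many hits fall short of the cut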
# Mtb hypoxia rep growth – second read-out of Mtb hypoxia rep, no call of its own (marks repeat the call); growth inhibition, %; measured here: M. tuberculosis growth (absorbance);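 0% = vehicle and 100% = reference antibiotic; read after six days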
# Active calls of the source: *; ? = inconclusive; / = not tested or not shown.
SMILES,BJeLR viability,ugtP null kill,RN4220 kill,PrP UTR inh,Autofluor counter,Mtb hypoxia rep,Mtb hypoxia rep growth
CCCCN(CC)CCNC(=O)CN(C)S(=O)(=O)c1ccc2c(c1)c(=O)n(C)c(=O)n2C,9,6,2.1,1,7919,5,-1
O=C(COC(=O)c1ccccc1C(=O)N1CCN(c2ccc(F)cc2)CC1)NCc1ccccc1,4,7,2.1,-17,4242,/,/
Cc1ccc(C)c(OCCC(=O)OCC(=O)Nc2cc(S(=O)(=O)N3CCCCC3)ccc2C)c1,/,-6,3.1,-35,3424,-4,-2
COc1cccc(NC(=O)CN(C)C(=O)c2ccc(NC3CC3)c([N+](=O)[O-])c2)c1,/,11,0.4,-17,3057,6,-7
CCCOc1ccc(CNC(=O)Cn2ncc3ccccc32)cc1,1,-9,-5.8,-9,5616,-2,-4
O=c1cc(NCCc2ccccc2)c2ccccc2o1,3,0,-0.6,-43,4652,0,2
CCOP(=O)(OCC)c1nc(-c2cccc3ccccc23)oc1N1CCCCC1,2,-13,8.6,72*,4329,-1,-1
CCCCC(NC(=O)c1ccc(Cl)cc1)C(=O)O (stereo not given),-1,-3,-2.9,/,10202,-7,13
C=CCn1c(SCc2ccc(C#N)cc2)nnc1-c1cccc(OC)c1,-3,-3,4.1,-7,3591,/,/
CCOc1cc(C(=O)N(CC)CC(=O)Nc2ccc3c(c2)OCCO3)ccc1OC,/,9,3.6,-2,3192,3,6
Cc1cc(C(F)(F)F)nn1CC(=O)N1CCCC1,1,-4,-7.7,-13,4744,/,/
CCOC(=O)C1CCN(Cc2ccc(-c3ccccc3)cc2)CC1,0,3,3.6,-22,3658,-5,1
CCC(Sc1nc(C)cc(C)n1)C(=O)Nc1ccc(S(N)(=O)=O)cc1 (stereo not given),2,5,5.5,-19,4820,16,6
Cc1ccc(C2c3c(oc4ccccc4c3=O)C(=O)N2c2nnc(C(C)C)s2)o1 (stereo not given),0,2,1.9,-4,6423,/,/
CCCCN1CC[C@H]2C=CC[C@@H](C(=O)Nc3ccccc3)[C@H]2C1=O,3,/,/,0,3757,/,/
O=C(NNC(=O)c1cc2cc3ccccc3nc2s1)c1ccc(F)cc1,-14,/,/,-11,3624,/,/
CCOC(=O)N1CCC(Nc2nc3ccccc3nc2NS(=O)(=O)c2ccc(Cl)cc2)CC1,3,-20,13,-41,12218,1,15
C=CCNc1oc(-c2ccco2)nc1S(=O)(=O)c1ccccc1,-1,-3,-1.8,10,5811,-6,8
COc1ccc(-n2cnnc2SCC(=O)N(C)c2ccccc2)cc1,-3,1,2.0,-10,3589,-7,-3
O=C(Nc1nnc(C2CC2)s1)c1cc(-c2ccccc2)nn1-c1ccccc1,1,-10,20,-21,5114,/,/
Fc1ccc(N2CCN(C3CCC(c4ccccc4)CC3)CC2)cc1 (stereo not given),0,1,-1.4,-23,3498,7,8
COc1ccc(NS(=O)(=O)c2ccc3oc4ccccc4c3c2)cn1,8,-3,1.8,-10,6926,3,-3
O=C(O)/C(=C\c1ccco1)NC(=O)c1ccc(Br)o1,2,4,0.1,-14,6051,4,-9
COc1ccc(CN2CCOC2=O)cc1OC,-15,-1,3.9,-22,4675,11,0
CC(Sc1nnc(C2CC2)n1C)C(=O)Nc1ccc(N2CCOCC2)cc1 (stereo not given),/,0,2.2,-24,/,10,6
CN(C)C(=O)c1ccc(-c2cc3onc(-c4ccccc4)c3c(=O)n2C)cc1,/,8,1.5,-40,3962,4,8
CC1(C)CN(c2ccc(F)cc2)C1=O,4,12,7.1,-17,2551,3,-12
NC(=O)CSc1nnc(-c2ccco2)n1N,-5,-2,0.4,/,9816,-11,10
COc1cccc(C2CC(c3ccccc3)=NN2S(=O)(=O)c2ccccc2)c1OC (stereo not given),-4,21,8.8,-19,7096,1,-3
Cc1ccc(-c2nc3ccc([N+](=O)[O-])cc3[nH]2)cc1,7,-9,-1.1,-20,3479,19,6
COc1cc(OC)c(OC)cc1CNCC1COc2ccccc2O1 (stereo not given),-8,5,1.4,-3,3360,13,4
COc1ccccc1OCC(=O)Nc1ccc(S(=O)(=O)Nc2nc(C)cc(C)n2)cc1,-2,6,5.9,0,13029,1,3
COc1ccc2[nH]c(C(=O)NCc3ccc4c(c3)OCO4)cc2c1,5,-8,-1.5,-21,/,18,11
C=CCOC(=O)c1ccc(-n2cncn2)nc1,3,14,5.6,-11,2497,6,11
CC(=NN(c1ccccc1)c1ccccc1)c1ccco1,/,8,11,/,/,7,6
COc1ccc(Cl)cc1NC(=O)CCS(=O)(=O)c1ccc(Br)cc1,-5,-4,12,-11,3910,3,8
O=C(C1COc2ccccc2O1)N1CCN(c2nc3ccc([N+](=O)[O-])cc3s2)CC1 (stereo not given),9,1,4.2,-14,?,14,11
COc1ccccc1N(C)S(=O)(=O)c1ccc(Cl)c(C(=O)N2CCC2)c1,-10,1,1.1,-4,?,13,6
CCCS(=O)(=O)N1CCN(C(=O)c2ccccc2F)CC1,-5,-2,3.2,-3,4042,4,2
CCC(C)C(C)=NNC(=O)c1ccc(COc2ccc(Cl)c(C)c2)cc1 (stereo not given),/,4,8.6,/,/,6,2
Cc1nc(SCC(=O)NCC2CCCO2)c2c3c(sc2n1)CCCC3 (stereo not given),-4,-4,1.2,-17,5951,17,46
O=C(O)c1cccc(-n2c(/C=C/c3cccc([N+](=O)[O-])c3)nc3ccccc3c2=O)c1,-15,-1,32,-2,3037,-8,-8
CCc1ccc(CNC(=O)CC2C(=O)NCCN2Cc2ccccc2F)nc1 (stereo not given),2,10,3.9,-29,5720,1,1
Cc1cccc(NC(=O)/C(=C/c2cccc([N+](=O)[O-])c2)NC(=O)c2cccs2)c1,-7,5,13,-30,2084,8,10
COc1ccc(NC(=O)COC(=O)C2CC(=O)N(c3ccc(C)cc3)C2)cc1 (stereo not given),-7,4,3.1,-7,3845,-13,-14
COc1cc(C=NNC(N)=O)ccc1OC(=O)c1ccco1,/,8,4.0,/,/,1,8
COc1cc(CC(=O)OCC(=O)NCc2ccc(C)cc2)cc(OC)c1OC,/,3,1.2,-6,6446,11,11
CCNC(=S)N1CCC(C(O)(c2ccccc2)c2ccccc2)CC1,0,/,/,-6,5240,/,/
CC(CC(C#N)(c1ccccc1)c1ccccc1)N1CCCCC1 (stereo not given),/,7,4.8,-7,2894,9,6
CC12CCC(CC1=O)C2(C)C (stereo not given),/,-12,7.3,-21,5641,/,/
CC(Sc1nnc(-c2ccccc2F)n1C)C(=O)NC1CCCCC1 (stereo not given),/,9,0.4,-14,3198,1,-5
COc1ccc(NC(=O)CN(C)C(=O)CCCSc2nc3ccccc3[nH]2)cc1,1,4,-1.9,-35,5215,-4,6
Cc1ccc(-n2nc3c(c2NC(=O)c2cccs2)CS(=O)(=O)C3)cc1C,-9,4,2.6,-11,5086,2,18
CCN1CCN(c2cc(C)c3cc(NC(=S)N(CC)CC)ccc3n2)CC1,5,1,3.4,-29,4922,14,2
CC(=O)c1cc2c(cc1NC(=O)CCn1cccc1)OCO2,-8,-8,5.6,-2,2765,7,2
CCc1nc(NC(=O)NS(=O)(=O)c2ccccc2C(=O)OC)nc(OC)n1,-6,10,6.0,-2,2539,3,-7
COc1ccc(OC)c(NC(=O)CNC(=O)Cn2ccc3ccccc3c2=O)c1,-7,10,1.2,-20,5854,4,6
c1ccc2c(c1)NC(c1ccncc1)n1c-2nc2ccccc21 (stereo not given),4,6,5.6,-27,3491,/,/
C/C(=N\NC(=O)c1nnn(-c2nonc2N)c1CN1CCC(C)CC1)c1cccc(Br)c1,8,/,/,-4,5771,/,/
CCOC(=O)c1c(C)[nH]c(C)c1C(=O)COC(=O)c1sccc1C,/,-4,2.7,-22,9222,12,7

# Filtered by structure: the entries above with a COOH group.
SMILES,BJeLR viability,ugtP null kill,RN4220 kill,PrP UTR inh,Autofluor counter,Mtb hypoxia rep,Mtb hypoxia rep growth
CCCCC(NC(=O)c1ccc(Cl)cc1)C(=O)O (stereo not given),-1,-3,-2.9,/,10202,-7,13
O=C(O)/C(=C\c1ccco1)NC(=O)c1ccc(Br)o1,2,4,0.1,-14,6051,4,-9
O=C(O)c1cccc(-n2c(/C=C/c3cccc([N+](=O)[O-])c3)nc3ccccc3c2=O)c1,-15,-1,32,-2,3037,-8,-8

# Next section.
SMILES,BJeLR viability,ugtP null kill,RN4220 kill,PrP UTR inh,Autofluor counter,Mtb hypoxia rep,Mtb hypoxia rep growth
COc1cc(SC)ccc1C(=O)Nc1ccc2c(c1)CCN2S(C)(=O)=O,-4,2,5.3,-10,12646,-3,12
O=C(Cc1c[nH]c2ccccc12)Nc1nccs1,-9,4,1.1,-3,3725,/,/
COc1ccc2nc(C)[nH]c(=O)c2c1,2,-6,-16,-20,3117,24,-22
Cc1cccc2cc(C#N)c(NCCCNS(=O)(=O)c3ccc(Cl)cc3)nc12,8,-6,-5.9,-14,5375,1,-1
O=C(NC1CCCCC1)C(c1cccs1)N(CC1CCCO1)C(=O)c1csnn1 (stereo not given),-3,0,-0.6,-18,?,-8,-16
COc1ccc(C(=O)N2CCN(C3CCCCC3)CC2)cc1OC,-2,4,-0.1,-12,/,25,1
CCCCC(C)=NNC(=O)c1cn(-c2ccccc2)nc1-c1ccccc1,/,2,0.3,/,/,-10,2
CCc1nnc(NC(=O)CCC(=O)N2CCN(Cc3ccc(F)cc3)CC2)s1,10,9,1.6,-8,4624,3,-6
Cc1cccc(NC(=S)N2CCC(NC(=O)c3cccc(F)c3)CC2)c1,4,/,/,-16,2847,/,/
O=C(Nc1nc2c(s1)CCCC2)c1ccc(Br)s1,10,-26,-5.7,/,8500,-14,-13
O=c1[nH]c(NN=Cc2ccc(F)cc2)nc2ccccc12,/,-8,-2.0,/,/,6,9
Nc1nc(SCC(=O)Nc2ccccc2-c2ccccc2)n[nH]1,-2,6,5.5,-16,5532,6,17

# Gathered by group, the compounds so far containing bromine
SMILES,BJeLR viability,ugtP null kill,RN4220 kill,PrP UTR inh,Autofluor counter,Mtb hypoxia rep,Mtb hypoxia rep growth
O=C(O)/C(=C\c1ccco1)NC(=O)c1ccc(Br)o1,2,4,0.1,-14,6051,4,-9
COc1ccc(Cl)cc1NC(=O)CCS(=O)(=O)c1ccc(Br)cc1,-5,-4,12,-11,3910,3,8
C/C(=N\NC(=O)c1nnn(-c2nonc2N)c1CN1CCC(C)CC1)c1cccc(Br)c1,8,/,/,-4,5771,/,/
O=C(Nc1nc2c(s1)CCCC2)c1ccc(Br)s1,10,-26,-5.7,/,8500,-14,-13

# More compounds follow:
SMILES,BJeLR viability,ugtP null kill,RN4220 kill,PrP UTR inh,Autofluor counter,Mtb hypoxia rep,Mtb hypoxia rep growth
Cc1ccc(CC2CC(=O)N(c3ncccn3)C2=O)cc1 (stereo not given),5,2,4.4,-17,3662,-7,-2
CCn1c(O)c(N=NC2=NC(=O)CS2)c2ccccc21,-9,-16,-6.0,-27,2419,7,6
Cc1noc(C)c1NC(=O)Nc1ccc2c(c1)C(=O)N(C(C)CO)CC(C)C(CN(C)C)O2 (stereo not given),/,-1,2.3,/,/,3,3
COc1ccc(-n2cnnc2SCc2csc(-c3ccccc3)n2)cc1,-1,-4,7.5,-12,22341*,8,11
CN(C)c1ccc(C2CC(=O)C=C(Nc3ccccc3N)C2)cc1 (stereo not given),-4,0,2.1,/,6149,13,7
CCc1ccc(OCC(=O)NNC(=S)NC(=O)C2CC2)c(Br)c1,/,37,69,-22,5479,10,0
C[C@H](CO)N1C[C@H](C)[C@@H](CN(C)C(=O)Nc2ccc(C(F)(F)F)cc2)Oc2c(NC(=O)CCC(F)(F)F)cccc2C1=O,/,-12,-15,3,3601,3,6
O=C(c1ccc(S(=O)(=O)N2CCCC2)cc1)N1CCCCC1,0,4,2.5,-14,?,12,5
COc1ccccc1N1CCN(/N=C\c2sccc2C)CC1,-3,/,/,-38,4051,/,/
Cc1cc(-c2cc(-c3ccc(Cl)cc3)nc(N)c2C#N)co1,0,-17,6.4,8,3082,/,/
COc1ccc(CCNC(=O)c2ccc(C)s2)cc1OC,-3,1,4.0,-23,4737,14,6
COc1ccc(-c2cc(C(=O)N3CCCc4ccccc43)no2)cc1OC,-7,3,4.4,-10,22113*,1,12
O=C(NNC(=S)Nc1ccc(F)cc1)[C@H]1C[C@@H]1c1ccccc1,-14,3,4.6,/,/,14,-3
CCOC(=O)Nc1ccccc1C(=O)Nc1cc(C)cc(C)c1,-7,1,-2.7,5,4592,-7,11
COc1cccc(-c2c(C(=O)NN=CC3CC=CCC3)nnn2-c2nonc2N)c1 (stereo not given),/,-1,-2.2,/,/,-3,-9
O=C(N/N=C/c1c[nH]c2c1ccc1ccccc12)c1ccc([N+](=O)[O-])cc1,-2,/,/,-23,2176,/,/
